Screens deposited in PubChem by Vanderbilt University.
GIRK2 act = activators of human GIRK2 potassium channels | G protein-activated inward rectifier potassium channel 2 (Homo sapiens), P48051 | 63,000 compounds, 0.05% hits | calls only for hits at 25 µM | HEK293-GIRK2 thallium flux, Thallos fluorescence;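 active = among the strongest 0.2% of first-round signals and kept after retests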;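 also: first round at about 10 µM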
Target sequence (P48051 whole entry, looked up): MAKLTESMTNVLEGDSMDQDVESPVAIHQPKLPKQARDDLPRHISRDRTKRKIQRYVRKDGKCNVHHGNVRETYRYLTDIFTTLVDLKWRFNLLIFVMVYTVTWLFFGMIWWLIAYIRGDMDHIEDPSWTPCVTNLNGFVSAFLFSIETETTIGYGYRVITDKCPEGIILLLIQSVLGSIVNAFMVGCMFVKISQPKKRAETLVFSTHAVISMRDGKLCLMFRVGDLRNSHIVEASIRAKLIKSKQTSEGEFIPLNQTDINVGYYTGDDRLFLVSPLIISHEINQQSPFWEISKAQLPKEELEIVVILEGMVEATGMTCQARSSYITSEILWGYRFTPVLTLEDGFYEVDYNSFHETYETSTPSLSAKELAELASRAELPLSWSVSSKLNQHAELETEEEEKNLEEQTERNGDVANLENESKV
Calls only.

`O=C(Cn1cccn1)N1CCC(c2nnc(-c3ccco3)s2)CC1` gave GIRK2 act inactive.
`COc1cc(OC)cc(C(=O)Nc2cnc(OC)nc2)c1` gave GIRK2 act inactive.
For Cc1cc(C(=O)NCC2CCN(c3ccccn3)CC2)no1 the results were GIRK2 act inactive.
COCC1CCCN(CC(=O)NC2CC2)C1 (centres undefined) was read as GIRK2 act inactive.
O=C(/C=C/c1ccco1)NCC1(O)CCCC1 was read as GIRK2 act inactive.
Screening CCCOc1ccc(S(=O)(=O)NCCN2CCOCC2)c2ccccc12 returned GIRK2 act inactive.
`O=C(Cn1cc(S(=O)(=O)N2CCCCC2)ccc1=O)N1CCCc2ccccc21` gave GIRK2 act inactive.
`O=C(Nc1nc2c(s1)CN(S(=O)(=O)c1ccc(F)cc1F)CC2)c1cccs1` gave GIRK2 act inactive.
`COc1ccccc1C(=O)Nc1ccc2c(=O)c3cccc(F)c3oc2c1` gave GIRK2 act inactive.
Screening O=C(NCCC1=CCCCC1)C(=O)Nc1cccnc1 returned GIRK2 act inactive.
Screening CC(C)(C)c1noc(-c2ccnc(-n3cnc(C(=O)NCc4ccc(Cl)cc4)c3)c2)n1 returned GIRK2 act inactive.
`Cc1cc(NC(=O)C(=O)NCC2CCN(Cc3cccs3)CC2)no1` gave GIRK2 act inactive.
`Cn1nc(C(=O)Nc2ccc3c(c2)CN(C(=O)c2cccs2)CC3)ccc1=O` gave GIRK2 act inactive.
Screening Cc1ccc(-c2cc3c(=O)n(CC(=O)N4CCCc5ccccc54)ncn3n2)cc1C returned GIRK2 act inactive.
For CCOc1ccc(C(=O)NCC2(c3ccc(OC)cc3)CCCC2)cc1 the results were GIRK2 act inactive.
CSc1nnc(N2CCN(c3ccc(F)cc3)CC2)s1 was read as GIRK2 act inactive.
CCOC(=O)c1c(NCc2ccc(SC)cc2)c2cccc(C)c2[nH]c1=O was read as GIRK2 act inactive.
Screening O=C(c1ccc(Cn2ccnc2)cc1)N1CCN(S(=O)(=O)C2CC2)CC1 returned GIRK2 act inactive.
Cc1ccccc1-c1noc(C2CC(=O)N(Cc3ccco3)C2)n1 (centres undefined) was read as GIRK2 act inactive.
Screening O=C(c1cccs1)c1ccc(CNC(=O)c2cccc3ccccc23)s1 returned GIRK2 act inactive.
For CCOC(=O)Cn1nc(C2CC2)n(-c2ccccc2)c1=O the results were GIRK2 act inactive.
`O=C(c1cccs1)N(CCCn1ccnc1)c1nc2ccc(Cl)cc2s1` gave GIRK2 act inactive.
COc1ccc(CC(=O)NCCS(=O)(=O)N2CCc3ccccc3C2)cc1 was read as GIRK2 act inactive.
For Cc1sc(N)c(C(=O)c2cccc(C(F)(F)F)c2)c1C the results were GIRK2 act inactive.
For COc1ccc(NC(=O)CCCCCn2nnc3ccccc3c2=O)c(OC)c1 the results were GIRK2 act inactive.
CC(O)CN1CCN(C(=O)NCc2cccs2)CC1 (centres undefined) was read as GIRK2 act inactive.
For COc1nn(C)cc1C(=O)NCC1CCN(c2ccccn2)CC1 the results were GIRK2 act inactive.
Screening Oc1ccc(Nc2nc(-c3ccc(Cl)cc3)cs2)cc1 returned GIRK2 act inactive.
Screening Cc1ccccc1-n1ccn(Cc2nc(-c3ccc(Br)cc3)no2)c(=O)c1=O returned GIRK2 act inactive.
For COc1ccc(NC(=O)C(=O)NCCCc2ccccc2)cc1OC the results were GIRK2 act inactive.
For CCCCOC(=O)c1ccc(NC(=O)c2cc3cccnc3n(C)c2=O)cc1 the results were GIRK2 act inactive.
`O=C(Cn1nc2nc(Nc3ccc(F)cc3)ccn2c1=O)N1CCCC1` gave GIRK2 act inactive.
Screening COc1ccc(Cl)cc1NC(=O)Nc1nnc(-c2cccc(SC)c2)o1 returned GIRK2 act inactive.
`O=C(CC1CCCC1)Nc1cc(N2CCCC2)ncn1` gave GIRK2 act inactive.
Screening CNC(=O)C1Cc2ccccc2N1C(=O)c1ccc(S(=O)(=O)N2CCCCC2)cc1 (centres undefined) returned GIRK2 act inactive.
`COc1ccc(/C=C/c2cc(O)cc(O)c2)cc1O` gave GIRK2 act inactive.
`O=C(Nc1nc(C(=O)Nc2nc(-c3cccnc3)cs2)co1)c1ccccc1` gave GIRK2 act inactive.
`CCOC(=O)C1CCN(C(=O)C2CCN(c3cc(Oc4ccc(CC)cc4)ncn3)CC2)CC1` gave GIRK2 act inactive.
For O=C(c1cc(-c2ccccc2)n[nH]1)N1CCC(Oc2ccccn2)CC1 the results were GIRK2 act inactive.
For O=S(=O)(CCNCc1ccc(-c2ccc3ncnc(Nc4ccc(OCc5cccc(F)c5)c(Cl)c4)c3c2)o1)c1ccccc1 the results were GIRK2 act inactive.
Cn1nc(CNC(=O)C(C)(C)C)cc1-c1ccco1 was read as GIRK2 act inactive.
Screening CCN(CC)CCn1c(C)cn2c3c(=O)n(C/C=C/c4ccccc4)c(=O)n(C)c3nc12 returned GIRK2 act inactive.
Screening O=C(CSCc1ccccc1)N1CCN(CCn2cccn2)CC1 returned GIRK2 act inactive.
Screening O=C(c1ccccc1C(F)(F)F)N1CCN(c2ccc3nnc(C4CC4)n3n2)CC1 returned GIRK2 act inactive.
For Cc1nn(C2CCS(=O)(=O)C2)c(C)c1N1CCN(C(=O)c2cc(-c3cccs3)[nH]n2)CC1 (centres undefined) the results were GIRK2 act inactive.
Screening O=C(NCc1cccs1)N1CCN(CC(O)C2CC2)CC1 (centres undefined) returned GIRK2 act inactive.
Screening COc1cccc2cc(C(=O)NCc3sc(-c4ccccc4Cl)nc3C)oc12 returned GIRK2 act inactive.
Screening Cc1cc(CNC(=O)C(=O)Nc2cc(Cl)ccc2C#N)c(C)o1 returned GIRK2 act inactive.
Screening CSc1ncc(Cl)c(C(=O)Nc2cc(Cl)cc(Cl)c2)n1 returned GIRK2 act inactive.
Screening CCOc1ccc(-n2c(=O)c3sccc3n(Cc3nc(-c4cccc(OC)c4)no3)c2=O)cc1 returned GIRK2 act inactive.
CCCOc1ccc(S(=O)(=O)Nc2ccc3c(c2)CCCN3S(=O)(=O)CCC)cc1 was read as GIRK2 act inactive.
For Cc1cn2c3c(=O)n(CCCO)c(=O)n(C)c3nc2n1-c1ccc(C(F)(F)F)cc1 the results were GIRK2 act inactive.
`CCc1cc(=O)n(CC(=O)Nc2cc(Cl)cc(Cl)c2)c(C)n1` gave GIRK2 act inactive.
Screening Cc1ccc(N2C(=O)C3N=NN(CC(=O)Nc4c(C)cccc4C)C3C2=O)cc1C (centres undefined) returned GIRK2 act inactive.
Screening COc1cccc(C(=O)Nc2sc3c(c2C#N)CC(C)(C)NC3(C)C)c1OC returned GIRK2 act inactive.
C=CCn1c(=O)c2c(nc3n(CCCl)c(C)c(C)n23)n(C)c1=O was read as GIRK2 act inactive.
For CCSc1ccccc1C(=O)NCC1CCN(Cc2cccs2)CC1 the results were GIRK2 act inactive.
Screening CC(C)(C)NC(=O)N1CCC(CNC(=O)C(=O)Nc2ccc3c(c2)N(S(C)(=O)=O)CCC3)CC1 returned GIRK2 act inactive.
Screening Cc1nc(-c2ccccc2Cl)sc1CNC(=O)Nc1cccs1 returned GIRK2 act inactive.
For Cc1c(C)n2c3c(=O)n(CCCO)c(=O)n(C)c3nc2n1-c1ccc(F)cc1 the results were GIRK2 act inactive.
For COc1ccc2c(CC(=O)N(CC(C)C)CC(C)C)cc(=O)oc2c1 the results were GIRK2 act inactive.
`Cc1nc2ccc(NC(=O)C3CCN(S(=O)(=O)c4ccc(Cl)cc4)CC3)cc2s1` gave GIRK2 act inactive.
For O=C(NCc1ccc(OC(F)(F)F)cc1)c1nnn(-c2ccc(Br)cc2)n1 the results were GIRK2 act inactive.
For Cc1cc(=O)n2c(-c3ccc(NC(=O)Nc4ccc(F)c(F)c4)cc3)csc2n1 the results were GIRK2 act inactive.
Screening COC(=O)CCn1c(=O)c2c(nc3n(-c4cc(OC)ccc4OC)c(C)c(C)n23)n(C)c1=O returned GIRK2 act inactive.
For CN(C)CCNc1oc(-c2ccc(S(=O)(=O)N3CCCCC3)cc2)nc1C#N the results were GIRK2 act inactive.
Screening COc1cccc(C(=O)Oc2ccc3c(=O)c(-c4ccccc4)coc3c2)c1 returned GIRK2 act inactive.
`CCCCn1c(SCC(=O)Nc2cc(Cl)ccc2C)nc2c(sc3ncccc32)c1=O` gave GIRK2 act inactive.
COC(=O)c1ccc(NC(=O)CSc2nccnc2N2CCN(c3ccccc3OC)CC2)cc1 was read as GIRK2 act inactive.
O=C(Nc1ccc(SC(F)F)cc1)c1ccc2nccnc2c1 was read as GIRK2 act inactive.

The final 6 compounds of the part before lead into the next:
Screening COC(=O)CCn1c(=O)c2c(nc3n(-c4cc(OC)ccc4OC)c(C)c(C)n23)n(C)c1=O returned GIRK2 act inactive.
For CN(C)CCNc1oc(-c2ccc(S(=O)(=O)N3CCCCC3)cc2)nc1C#N the results were GIRK2 act inactive.
Screening COc1cccc(C(=O)Oc2ccc3c(=O)c(-c4ccccc4)coc3c2)c1 returned GIRK2 act inactive.
`CCCCn1c(SCC(=O)Nc2cc(Cl)ccc2C)nc2c(sc3ncccc32)c1=O` gave GIRK2 act inactive.
COC(=O)c1ccc(NC(=O)CSc2nccnc2N2CCN(c3ccccc3OC)CC2)cc1 was read as GIRK2 act inactive.
O=C(Nc1ccc(SC(F)F)cc1)c1ccc2nccnc2c1 was read as GIRK2 act inactive.
Screening O=C(Cc1ccc(NC(=O)CSCc2ccccc2)cc1)NCc1cccs1 returned GIRK2 act inactive.
For O=C(CCc1csc(NC(=O)c2ccc(F)cc2)n1)Nc1ccc2c(c1)OCCO2 the results were GIRK2 act inactive.
For COc1ccc(CCNC(=O)c2cc(=O)c(OCc3ccc(F)cc3)c[nH]2)cc1OC the results were GIRK2 act inactive.
Screening NNC(=O)COc1ccc(-c2[nH]ncc2-c2ccc(Cl)cc2)c(O)c1 returned GIRK2 act inactive.
For Cc1cc(S(=O)(=O)NCCCn2ccnc2-c2ccccc2)ccc1F the results were GIRK2 act inactive.
`CCOC(=O)C1CCN(C(=O)C2CCCN(c3ccc(-c4ccccc4)nn3)C2)CC1` (centres undefined) gave GIRK2 act inactive.
COc1ccc(CC(=O)Nc2cc(N3CCCC3)ncn2)cc1OC was read as GIRK2 act inactive.
`O=C(N1CCOCC1CO)C1(c2ccccc2)CCOCC1` (centres undefined) gave GIRK2 act inactive.
O=C(c1cccnc1)N1CC(c2nc(C3CC3)no2)C1 was read as GIRK2 act inactive.
`COc1ccc(CCNS(=O)(=O)CCNC(=O)c2ccc3c(c2)OCO3)cc1OC` gave GIRK2 act inactive.
For CCc1ccc(NC(=O)CSc2nccc(N3CCN(c4ccccc4)CC3)n2)cc1 the results were GIRK2 act inactive.
C/C(Cl)=C\Cn1c(NCCCN2CCOCC2)nc2c1c(=O)n(C)c(=O)n2C was read as GIRK2 act inactive.
For O=C(CSc1nnc(N2CCN(c3ccc(F)cc3)CC2)s1)NC1CCCC1 the results were GIRK2 act inactive.
For COc1ccc(CCNC(=O)CSc2nc3cc(-c4ccccc4)sc3c(=O)n2C)cc1OC the results were GIRK2 act inactive.
O=C(NCCOc1ccccc1)NCC1(O)CCOCC1 was read as GIRK2 act inactive.
O=C(CCCn1cccc1)NCc1ccccc1Cl was read as GIRK2 act inactive.
`O=C(CN1C(=O)CCC1=O)N1CCOC2(CCOCC2)C1` gave GIRK2 act inactive.
O=C(Cn1cccc(S(=O)(=O)N2CCCC2)c1=O)Nc1cc(F)ccc1F was read as GIRK2 act inactive.
For O=C(Nc1cccc(Cl)c1)c1sccc1S(=O)(=O)N1CCN(c2ccccc2F)CC1 the results were GIRK2 act inactive.
`Cc1nnsc1C(=O)N1CCC(CNC(=O)CC(CC(=O)O)c2cccs2)CC1` (centres undefined) gave GIRK2 act inactive.

Brought forward from above: 2 compounds, then new ones.
For O=C(Nc1cccc(Cl)c1)c1sccc1S(=O)(=O)N1CCN(c2ccccc2F)CC1 the results were GIRK2 act inactive.
`Cc1nnsc1C(=O)N1CCC(CNC(=O)CC(CC(=O)O)c2cccs2)CC1` (centres undefined) gave GIRK2 act inactive.
`COc1ccc(N2CCN(CCN3C(=O)c4ccccc4C3=O)CC2)cc1` gave GIRK2 act inactive.
COc1cccc(N2C(=O)N(c3cccc(C(F)(F)F)c3)C3CS(=O)(=O)CC32)c1 (centres undefined) was read as GIRK2 act inactive.
`C=C(C)Cn1c(SCC(=O)NC2CCCC2)nc2sc3c(c2c1=O)CCCC3` gave GIRK2 act inactive.
Screening CCOc1ccc(NC(=O)N2CCN(c3ccc(C)nn3)CC2)cc1 returned GIRK2 act inactive.
C#CC(C)(CC)OCC(O)CN1CCN(C(=O)OCC)CC1 (centres undefined) was read as GIRK2 act inactive.
Screening O=C(NCc1ccccc1)Nc1ccc2c(c1)C(=O)Nc1ccccc1O2 returned GIRK2 act inactive.
CC(=O)Nc1ccc2c(c1)CCCN2S(=O)(=O)c1ccc(C)cc1 was read as GIRK2 act inactive.
For N#Cc1ccc(CSc2nc(CC(=O)NCCc3c[nH]c4ccccc34)cc(=O)[nH]2)cc1 the results were GIRK2 act inactive.
`COc1ccc(N2CCCn3c2nc2c3c(=O)n(C)c(=O)n2C)c(OC)c1` gave GIRK2 act inactive.
For COC(=O)c1ccc2c(=O)n(CC(=O)NCCN3CCN(c4ccccc4F)CC3)c(=S)[nH]c2c1 the results were GIRK2 act inactive.
`CCc1ccc(NCc2cc3cc4c(cc3n(CC(N)=O)c2=O)OCCO4)cc1` gave GIRK2 act inactive.

Among those listed so far, these contain an NH in an aromatic ring.
CCOC(=O)c1c(NCc2ccc(SC)cc2)c2cccc(C)c2[nH]c1=O was read as GIRK2 act inactive.
For O=C(c1cc(-c2ccccc2)n[nH]1)N1CCC(Oc2ccccn2)CC1 the results were GIRK2 act inactive.
For Cc1nn(C2CCS(=O)(=O)C2)c(C)c1N1CCN(C(=O)c2cc(-c3cccs3)[nH]n2)CC1 (centres undefined) the results were GIRK2 act inactive.
For COc1ccc(CCNC(=O)c2cc(=O)c(OCc3ccc(F)cc3)c[nH]2)cc1OC the results were GIRK2 act inactive.
Screening NNC(=O)COc1ccc(-c2[nH]ncc2-c2ccc(Cl)cc2)c(O)c1 returned GIRK2 act inactive.
For N#Cc1ccc(CSc2nc(CC(=O)NCCc3c[nH]c4ccccc34)cc(=O)[nH]2)cc1 the results were GIRK2 act inactive.
For COC(=O)c1ccc2c(=O)n(CC(=O)NCCN3CCN(c4ccccc4F)CC3)c(=S)[nH]c2c1 the results were GIRK2 act inactive.

A portion of the library; count on the stated rates, not on these rows.
